# gsp ag = agonists of gsp mutant (McCune-Albright syndrome). gsp mutant cells, cAMP HTRF, 30 min; control for the full effect not named in the record. Potency, µM (series often up to 76.9 µM), for inactives: at the top dose activation (cAMP increase), hits mostly activators. 340,000 compounds, 0.13% hits; active = well fitted activation curve with a large enough effect; inconclusive = small, poorly fitted or top-dose-only effect, or another doubt; inactive = no such curve, though single readings can be large or run the other way; cell line not stated here;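 also: phosphodiesterase inhibitor Ro 20-1724 added with compounds to block cAMP breakdown; potency is read from the fitted curve at half-maximal effect; nearly all actives have a fitted effect of over 60% in size; about a fifth of the inactives were tested at one dose only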
#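 Cells in DMEM/10% FBS with G418 were pretreated with compounds in DMSO plus […] (300 uM stock) for 30 min at 37C. cAMP was measured by HTRF (cAMP-d2 plus anti-cAMP antibody-K) after 30 min at room temperature.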
# TRPML1 agonist = activates the human TRPML1 channel | 410,000 compounds, 0.12% hits | TRPML1-expressing cells, Ca2+ dye fluorescence, FDSS; host cell line not named in the record; reference of the full effect not given here | activation, % (test concentration not listed); in the data active = activation above about 50%; inconclusive = about 30% to 50%; inactive = below about 30%; also: 0% is about no effect; the text of the record puts the active cut at 80%
# Target sequence (Q9GZU1 whole entry, looked up): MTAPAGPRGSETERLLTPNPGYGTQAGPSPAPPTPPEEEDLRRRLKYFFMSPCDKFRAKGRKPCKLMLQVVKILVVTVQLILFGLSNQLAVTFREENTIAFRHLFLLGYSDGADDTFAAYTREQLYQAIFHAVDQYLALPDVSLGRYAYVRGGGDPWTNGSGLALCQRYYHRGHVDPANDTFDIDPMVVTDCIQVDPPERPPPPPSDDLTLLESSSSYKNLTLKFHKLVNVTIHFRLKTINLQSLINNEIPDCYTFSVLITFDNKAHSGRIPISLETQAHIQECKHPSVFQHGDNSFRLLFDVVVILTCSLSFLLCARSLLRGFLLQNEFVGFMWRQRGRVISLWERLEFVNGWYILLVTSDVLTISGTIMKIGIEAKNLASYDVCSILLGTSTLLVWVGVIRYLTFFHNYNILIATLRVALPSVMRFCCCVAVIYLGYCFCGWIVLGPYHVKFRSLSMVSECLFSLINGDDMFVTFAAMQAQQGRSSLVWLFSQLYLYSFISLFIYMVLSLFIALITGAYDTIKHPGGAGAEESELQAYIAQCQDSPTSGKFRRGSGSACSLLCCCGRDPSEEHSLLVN
#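 Agonist activity was taken from a 110 s kinetic Ca2+ dye read on the FDSS after pinning compounds onto TRPML1-DL cells. The cells were seeded at 1,500/well with Tet inducer, incubated about 16 h, then dye-loaded at room temperature.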
# Menin-MLL FL inh = displaces fluorescein MLL peptide from human menin; 290,000 tested, under 10 active; Fluorescence polarization, fluorescein-MLL peptide displacement from menin; FP activity change, % at 61.4 µM; inconclusive = falling polarisation curve, or a change in total fluorescence; inactive = total fluorescence flat and polarisation flat or rising; no compound was filed as active; the % refers to the polarisation; negative = inhibition;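 also: % of control where 0% means no effect; inhibitors lower the polarisation; unlabelled MLL peptide was the positive control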
# gsp antag = antagonizes gsp, the McCune-Albright syndrome mutation; Potency, µM (highest dose often 76.9 µM), for the others: at the top dose activity change, negative = inhibition, actives largely listed as inhibitors; gsp-mutant cells, cAMP HTRF, 30 min; control for the full effect not named in the record; AID 624288; 340,000 compounds, 0.4% hits; active = falling curve of any shape with a large fitted effect; inconclusive = falling curve, mostly with a smaller effect; inactive = flat or rising curve; cell line not stated here;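 also: intracellular cAMP measured with PDE inhibitor Ro 20-1724 present during compound exposure; potency is read from the fitted curve at half-maximal effect; % is scaled to controls: 0 for no effect and ±100 for the full control effect; nearly all actives have a fitted effect of over 65% in size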
#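 G418-selected cells were plated in DMEM/10% FBS for 16-24 h at 37C, then treated with compounds plus the PDE inhibitor […] (300 uM solution added) for 30 min at 37C. Intracellular cAMP was measured by HTRF after 30 min lysis at room temperature.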
# TRPML1 inh = blocks the human TRPML1 channel | Q9GZU1 | TRPML1-inducible cells, Ca2+ dye fluorescence, FDSS; hits give low values; inhibition of EC80 agonist-evoked calcium signal | activity change, negative = inhibition, % (concentration not given with the values) | 390,000 compounds, 0.02% hits; in the data active means activity change below about -50%; inconclusive means about -30% to -50%; inactive means above about -30%;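 also: stimulus is agonist 54-4 at its EC80 concentration; % is scaled to controls: 0 for no effect and ±100 for the full control effect; the text of the record puts the active cut at -80%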
#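 Tet-induced TRPML1-DL cells loaded with Ca8 no-wash calcium dye were read kinetically on FDSS. Compound addition was followed by EC80 agonist 54-4 (4 uM final); inhibition was read over 110 s.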
# ClpP mod = qHTS Assay for Activators of ClpP | purified B. subtilis ClpP, FRET peptide cleavage, 20 min | Potency, µM (series often up to 57.5 µM), for the others: at the highest dose activity change, negative = active | 340,000 compounds, 1.9% hits | AID 651965, 2013; active = well fitted falling curve with a large enough effect; inconclusive = small, poorly fitted or top-dose-only effect; inactive = no such curve, though single readings can be large or run the other way; also: potency is read from the fitted curve at half-maximal effect; the source files actives as falling curves though it sought activators and does not explain the sign; nearly all actives have a fitted effect of over 65% in size; many hits overshoot -100%
# Target sequence (P80244 whole entry, looked up): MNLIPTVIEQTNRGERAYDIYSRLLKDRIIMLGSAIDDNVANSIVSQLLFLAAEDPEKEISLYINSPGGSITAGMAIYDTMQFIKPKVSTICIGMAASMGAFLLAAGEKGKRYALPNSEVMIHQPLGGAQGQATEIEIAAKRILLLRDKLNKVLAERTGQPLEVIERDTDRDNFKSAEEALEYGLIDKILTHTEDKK
#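 Buffer: 100 mM Tris/HCl pH8, 100 mM KCl, 0.05% low protease BSA, 2.5% glycerol, 0.01% Tween-20. ClpP 10 microg/mL final; 20 min RT; delta FRET normalized to ADEP and DMSO controls.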
# Active calls of the source: *; ? = inconclusive; . = not tested or not shown; [ ] = another dose, or the depositor's remark.
SMILES	gsp ag	TRPML1 agonist	Menin-MLL FL inh	gsp antag	TRPML1 inh	ClpP mod
O=C(NCc1ccco1)c1ccc(S(=O)(=O)N2CCCc3ccccc32)cc1	-15%	1.8	2.8	-6%	23	0.7%
Cc1ccc(C(=O)Nc2cccc3ccccc23)o1	-9%[15.4 µM]	0.5	.	7%	4	.
Cc1ccc(C(=O)Nc2ccc(S(=O)(=O)N3CCOCC3)cc2)cc1Br	-5%[15.4 µM]	1.3	.	-10%	4	.
COC(=O)c1ccc(CNC(=O)C2CCC(=O)N(C3CCCCCC3)C2)cc1 (configuration not stated)	-25%	-0.8	.	-5%	-10	-0.1%
CCc1ccc(CN(C(=O)c2cc(=O)c3ccc(C)cc3o2)C2CCS(=O)(=O)C2)cc1 (configuration not stated)	.	2.1	.	.	14	-2.5%
O=C(Nc1cccc(Cl)c1)Nc1cccc(C(=O)O)c1	-52%[inhibitor]	-0.6	0.4	12%	-4	.
N#Cc1cc(C(=O)c2cc(Cl)ccc2O)cn(-c2ccccc2)c1=O	23%	0.5	?	-3%	-15	30%
O=S(=O)(NCCCN1CCOCC1)c1ccc(F)c(Cl)c1	-60%[inhibitor]	2.5	.	16%	0	1.2%
Cc1ccc(-n2nc(C)c3c(-c4cccs4)c(C#N)c(N)nc32)cc1	?	1.8	9.1	4%	18	-13%
CN(C)c1cc(-c2ccc(F)cc2)oc(=O)c1Cl	18%	0.8	3.3	-11%	11	.
COCC(=O)Nc1ccc(N2CCOCC2)c(S(=O)(=O)Nc2ccccc2OC)c1	1%	-0.2	.	2%	-8	-4.4%
CCC(C)C(NC(=O)c1ccc(Cl)cc1Cl)C(=O)O (configuration not stated)	-3%	0.3	3.5	3%	0	1.5%
CCCN(CCC)CC(O)CN1C(=O)NC(C)(C)C1=O (configuration not stated)	-1%[15.4 µM]	1.5	0.7	.	4	.
O=C(NNC(=O)c1ccco1)Nc1ccccc1	7%[15.4 µM]	0.2	.	9%	19	0.9%
COC(=O)c1cc(O)cc(OC)c1C(=O)c1c(O)cc(C)cc1O	.	.	2.3	11%	.	-2.2%
Cc1oc2ccc(O)c(CN(C)Cc3ccccc3)c2c1C(=O)Nc1ccccc1	.	0.1	.	.	3	-1.4%
CCCc1[nH]nc2c1C(c1cn[nH]c1-c1ccc(F)cc1)C(C#N)=C(N)O2 (configuration not stated)	6%	1.0	8.8	14%	-8	-0.4%
COc1ccc(NC(=O)c2ccc(S(=O)(=O)N(C)C)cc2)cc1OC	32%	-0.5	0.4	7%	10	-1.8%
COc1ccc(N2CC(C)(C)C2=O)cc1	33%[15.4 µM]	-0.4	0.0	4%	2	.
COC(=O)c1ccc(CN2CCN(C3CCCCC3)C(CCO)C2)cc1 (configuration not stated)	10%	-0.2	-7.9	6%	9	.
CCOc1ccccc1N(CC(=O)Nc1ccccc1C(=O)N1CCCC1)S(C)(=O)=O	?	-0.2	.	8%	27	.
CCOc1ccc(C2CC(c3c(O)n(C4CCCCC4)c(=O)[nH]c3=O)=Nc3ccccc3S2)cc1 (configuration not stated)	.	1.3	.	.	-17	-1.4%
CCCN(C(=O)CCc1nc(-c2ccc(OC)cc2)no1)c1ccccc1F	.	1.2	.	.	31	0.2%
COc1ccc(C2=CSC3=NCCN23)cc1F	2%	-0.4	-0.6	-9%	-5	-6.3%
COCCCn1c(Cc2csc(Nc3ccc(F)cc3)n2)nnc1SCC(N)=O	-8%	-1.1	0.2	-3%	-8	-1.6%
COc1cc(CC(=O)OCC(=O)N2CC(C)CC(C)C2)cc(OC)c1OC (configuration not stated)	?	0.0	5.6	1%	30	.
CC12CCC(C(=O)NC(c3ccccc3)c3ccccc3)(OC1=O)C2(C)C (configuration not stated)	-5%	2.0	0.2	-13%	-2	-0.6%
Cc1ccc(C(=O)NCCc2ccc(F)cc2)s1	-4%[15.4 µM]	-0.8	1.8	-3%	-5	-0.9%
CCc1nnc(NC(=O)c2ccc(N(C)S(=O)(=O)c3ccccc3)cc2)s1	13%	3.0	4.0	-10%	21	-5.3%
Cc1cccc(C)c1NC(=O)CN1CCN(C(=O)CN2C(=O)NC3(CCCCC3C)C2=O)CC1 (configuration not stated)	-17%[15.4 µM]	1.7	.	-2%	16	.
CCC(CO)Oc1cc(NCc2cccc(Cl)c2)c2ncn(C(C)C)c2c1 (configuration not stated)	-19%	0.8	.	5%	-16	-4.8%
CCOc1cc(N2CCOCC2)c(OCC)cc1NC(=O)COC(=O)c1c(C)noc1C	-9%	-0.3	.	.	29	0.0%
CC(C)C(=O)Nc1ncc(Cc2cccc(Cl)c2)s1	4%[15.4 µM]	0.7	2.4	8%	1	-14%
CCCCn1c(N)c(N(CC(C)C)C(=O)c2ccc(OCC3CCCO3)cc2)c(=O)[nH]c1=O (configuration not stated)	-1%	0.1	.	-3%	-1	3.1%
O=C1c2ccccc2C(=O)N1CN(C(=O)COc1ccc(Cl)cc1Cl)c1cccc(F)c1	9%	-0.6	0.9	16%	-7	-1.1%
O=C(CSc1ccccc1)Nc1nnc(-c2ccco2)o1	-2%[15.4 µM]	-1.1	.	-15%	-11	.
COCCCn1c(=O)c2sccc2n(Cc2ccc(C)cc2)c1=O	7%	1.6	-0.3	12%	-7	-0.2%
Cc1c(C(=O)N2CCC(C)CC2)oc2ccc3c(c12)C(O)CC1(CCCCC1)O3 (configuration not stated)	4%	0.0	.	1%	13	-4.3%
CCN(Cc1ccncc1)C(=O)C1CCN(S(=O)(=O)c2cccs2)CC1	-6%	-0.8	-0.3	-4%	11	-3.6%
CC1=C(C(=O)O)N2C(=O)C(NC(=O)c3nn(C)cc3[N+](=O)[O-])C2SC1 (configuration not stated)	13%	0.0	3.6	3%	-10	.
Cc1ccc(C)c(C(=O)OCC(=O)Nc2cccc(S(=O)(=O)NC3=NCCCCC3)c2)c1	-18%[15.4 µM]	-0.6	-1.9	-18%	-10	0.9%
O=C(CNC(=O)C1CCCCC1)NCCCO	6%	2.6	2.1	5%	7	-0.1%
COc1ccccc1CNC(=O)C1CCN(S(=O)(=O)c2ccc(-n3cnnn3)cc2)CC1	28%	0.5	3.0	-9%	15	.
COCCNC(=O)Cn1cc(/C=N/NC(=O)c2ccc(Oc3ccc(O)cc3)cc2)c2ccccc21	18%[15.4 µM]	1.2	1.4	-2%	11	.
COc1ccc2oc(=O)c(C(=O)NCc3ccccc3)cc2c1	10%	0.5	0.6	23%	39	.
CC(C)c1ccc(CNC(=O)C(=O)NCCCn2ccnc2)cc1	23%[15.4 µM]	-0.5	-0.8	-12%	1	.
Cc1ccc(-c2cc(C(=O)Nc3ccc(S(=O)(=O)Nc4cc(C)on4)cc3)c3ccccc3n2)c(C)c1	-28%	1.5	0.9	-23%	14	-2.9%
CC(C)(C)NC(=O)/C(=C\c1ccco1)NC(=O)c1ccco1	-21%	-0.5	-8.2	9%	3	.
O=C(CN1CCN(Cc2ccc(F)cc2)CC1)NCCc1ccccc1	4%[15.4 µM]	-0.2	-0.3	9%	-7	-0.4%
O=C(NC(=S)NCC1COc2ccccc2O1)c1ccccc1 (configuration not stated)	12%	-0.6	0.5	1%	-2	-1.7%
O=C(Nc1ccc(-c2csc(Nc3cccc(C(F)(F)F)c3)n2)cc1)c1cccc(C(F)(F)F)c1	-1%	-0.6	-0.8	1%	11	-26%
COc1ccc(-n2ccn3c(CCC(=O)N4CCN(c5cccc(C)c5C)CC4)nnc3c2=O)cc1	-4%	-0.9	.	9%	-12	-2.7%
CCOc1ccc(S(=O)(=O)N2CCN(C(=O)c3cc4ccccc4o3)CC2)cc1	-3%	1.6	.	?	-11	-2.3%
O=C(Nc1ccccc1N1CCOCC1)c1ccncc1	-5%	0.0	.	8%	4	-1.9%
NC(=O)C1Cc2ccccc2CN1C(=O)c1nn(Cc2ccccc2)c(=O)c2ccccc12 (configuration not stated)	17%	-1.6	.	-5%	-7	-3.0%
Cc1cccc(N(C)C(=O)CCS(=O)(=O)c2cc3c(cc2Cl)NC(=O)CO3)c1	5%	0.0	2.7	0%	33	0.0%
O=C(Nc1ncc(Cc2cccc(Cl)c2Cl)s1)c1ccc([N+](=O)[O-])cc1	-8%	-0.8	-0.9	3%	-8	0.2%
O=C1CCCCCCCN1Cc1ccccc1	?	-0.8	.	10%	-1	-0.7%
C/C(=N\NC(=O)c1cccs1)c1ccc2ccccc2c1	-8%	2.5	1.6	1%	18	-9.0%
CCOC(=O)N1CCN(S(=O)(=O)c2ccc(C(=O)NNc3nc4c(C)cccc4s3)cc2)CC1	-1%	-0.1	5.3	-16%	-5	-0.4%

# Other structures
SMILES	gsp ag	TRPML1 agonist	Menin-MLL FL inh	gsp antag	TRPML1 inh	ClpP mod
O=C(NCc1ccc(F)cc1)c1ccc(Nc2nc3ccccc3n3nnnc23)cc1	.	2.0	.	.	6	-278%
CCOC(=O)C1CCCN(S(=O)(=O)c2ccc3c(c2)oc(=O)n3C)C1 (configuration not stated)	.	-0.9	.	.	23	0.1%
CN(Cc1cccc(Cl)c1Cl)c1ccc(S(=O)(=O)N2CCCCC2)cc1[N+](=O)[O-]	10%	0.0	5.0	4%	86	-9.5%
CCOC(=O)CCC(=O)Nc1ccc(S(=O)(=O)N2CCc3ccccc32)cc1	-14%	-0.3	4.2	-15%	15	3.0%
COc1ccccc1N1C(=O)c2ccc(C(=O)Nc3nccs3)cc2C1=O	0%[15.4 µM]	0.8	1.2	-19%	23	.
CC(C)(C)N(NC(=O)Nc1ccccc1)C(=O)c1ccccc1	-11%[15.4 µM]	-0.5	-0.3	5%	-8	0.5%
COCC(=O)Nc1ccc(N(C)C)cc1	17%	-0.4	3.1	-4%	33	2.6%
COCC(=O)N(C)[C@H]1C[C@H]2c3cc(-c4ccccc4)ccc3CCN2C(=O)[C@H]1[C@H](C)O	.	2.5	.	-10%	5	1.0%

# Part of the list above in order of formula weight, ascending:
SMILES	gsp ag	TRPML1 agonist	Menin-MLL FL inh	gsp antag	TRPML1 inh	ClpP mod
COCC(=O)Nc1ccc(N(C)C)cc1	17%	-0.4	3.1	-4%	33	2.6%
CCOC(=O)C1CCCN(S(=O)(=O)c2ccc3c(c2)oc(=O)n3C)C1 (configuration not stated)	.	-0.9	.	.	23	0.1%
COc1ccccc1N1C(=O)c2ccc(C(=O)Nc3nccs3)cc2C1=O	0%[15.4 µM]	0.8	1.2	-19%	23	.
COCC(=O)N(C)[C@H]1C[C@H]2c3cc(-c4ccccc4)ccc3CCN2C(=O)[C@H]1[C@H](C)O	.	2.5	.	-10%	5	1.0%

# From PubChem
